Screens from PubChem BioAssay.
KCNQ2 pot = KCNQ2 (rat) channel potentiation. O88943. CHO-K1 KCNQ2, FluxOR thallium flux fluorescence; stronger effect = higher value. B-score at 10 µM. 310,000 compounds, 0.54% hits. AID 2239;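 active means fluorescence ratio B-score at least 3 SD of library B-scores, with initial fluorescence B-score within 3 SD, cut at about 5.3 in these data; same plate scores as AID 2156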;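 further: B-score of peak minus minimum over baseline fluorescence ratio after K+ and Tl+ stimulus; positive B-score means potentiation of KCNQ2 with more thallium influx and brighter signal; only the inactives scoring about 0 or higher are listed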
Target sequence (O88943 whole entry, looked up): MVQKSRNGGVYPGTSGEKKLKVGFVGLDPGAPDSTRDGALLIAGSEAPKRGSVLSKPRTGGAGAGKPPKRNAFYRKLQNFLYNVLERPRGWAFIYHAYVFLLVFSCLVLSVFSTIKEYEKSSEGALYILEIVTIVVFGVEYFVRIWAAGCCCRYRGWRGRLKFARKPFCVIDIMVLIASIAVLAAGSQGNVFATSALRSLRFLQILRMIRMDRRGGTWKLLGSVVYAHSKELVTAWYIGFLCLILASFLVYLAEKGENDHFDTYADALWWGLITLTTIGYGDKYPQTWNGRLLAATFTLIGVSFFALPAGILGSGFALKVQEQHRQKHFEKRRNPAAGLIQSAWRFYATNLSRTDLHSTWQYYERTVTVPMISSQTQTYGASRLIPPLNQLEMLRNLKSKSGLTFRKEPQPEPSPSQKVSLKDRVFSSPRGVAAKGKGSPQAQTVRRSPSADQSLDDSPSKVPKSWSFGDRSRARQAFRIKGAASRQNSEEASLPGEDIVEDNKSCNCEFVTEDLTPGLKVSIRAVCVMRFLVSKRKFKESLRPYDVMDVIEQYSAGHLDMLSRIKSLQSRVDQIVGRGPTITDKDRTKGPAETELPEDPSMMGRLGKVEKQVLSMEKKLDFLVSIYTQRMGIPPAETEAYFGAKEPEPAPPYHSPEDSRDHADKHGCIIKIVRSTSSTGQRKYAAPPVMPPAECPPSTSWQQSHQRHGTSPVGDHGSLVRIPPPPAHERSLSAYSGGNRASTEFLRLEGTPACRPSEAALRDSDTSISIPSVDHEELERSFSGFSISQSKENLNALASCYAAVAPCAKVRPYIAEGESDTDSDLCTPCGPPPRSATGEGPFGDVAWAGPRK
KCNQ2 pot baseline = also measured in KCNQ2 pot; calls as there; B-score; compound at 10 µM; measured here: initial fluorescence intensity artifact check;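 brightness before thallium and not channel activity; 0 = typical well and far values either way flag optical interference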
An asterisk follows results filed as active. Some of the compounds tested, so the mix of outcomes need not match the whole.

KCNQ2 pot	KCNQ2 pot baseline	SMILES
0.75	-0.44	COc1cc2nc(NC(=O)c3ccc(F)cc3Cl)sc(=O)c2cc1OC
2.2	-0.76	NNC(=O)c1ccc2nc(-c3ccc(Br)cc3)cn2c1
1.5	-1.5	O=S(=O)(Nc1nc2ccccc2s1)c1ccc(Br)s1
0.92	-1.9	O=C(NCC1CCCO1)/C(=C\c1cccs1)NC(=O)c1ccccc1 (configuration not stated)
0.45	-0.31	Cc1c(C(=O)N(CCO)Cc2ccccc2)oc2c(F)cccc12
0.53	-2.7	CCOc1ccc(NS(=O)(=O)c2ccc(OCC(=O)N3CCCC3)cc2)cc1
0.06	1.1	Cc1ccc(NC(=O)CCc2nnc3ccc(NCc4ccco4)nn23)cc1F
2.6	-0.36	CCOC(=O)c1cccc(-n2c(C)cc(C=O)c2C)c1
0.21	-2.8	Cc1ccc(N=C2NC(=O)c3cc([N+](=O)[O-])ccc32)cc1
0.8	0.97	CCn1nc(C)c(NS(=O)(=O)c2ccccc2)c1C
0.02	1.5	CC1=C(C)CC(C(=O)N2CCN(Cc3ccccc3)CC2)C(C(=O)O)C1 (configuration not stated)
0.02	-0.78	COC(=O)CN(n1cnnc1)S(=O)(=O)c1ccc(C)cc1
0.66	0.32	CC1CCC(NC(=O)C2CCN(c3cnccn3)CC2)CC1 (configuration not stated)
0.82	0.18	CC(=O)CS(=O)(=O)c1ccc(Oc2ccc(S(=O)(=O)CC(C)=O)cc2)cc1
0.62	0	Cn1nc(CC(=O)NC2CCCCCC2)c2ccccc2c1=O
0.23	0.83	Cc1cc(-c2ccccc2)nc(Oc2cccc(C(F)(F)F)c2)c1S(C)(=O)=O
0.37	3.9	CSc1ccccc1NC(=O)CN(C)CC(=O)NCc1ccccc1
0.23	-0.93	CCOc1cc(C2c3c(oc4ccccc4c3=O)C(=O)N2c2nccs2)ccc1O (configuration not stated)
0.03	-0.31	COCCn1c(SCC(=O)NC2CC2)nnc1-c1ccco1
0.79	1.6	CCOC(=O)C[C@H]1c2ccc(C(F)(F)F)cc2S(=O)(=O)N1c1ccccc1
0.67	0.04	COc1ccc(CC(=O)Nc2cccc(C(=O)Nc3ccccc3C(=O)O)c2)cc1OC
0.86	0.08	O=C(CCc1nnc(C2(c3ccc(Cl)cc3)CCC2)o1)N1CCCC1
0.31	0.9	CC(C)c1cc2cc3ccc(=O)oc3cc2o1
2.5	0.16	COc1cccc(N(C(=O)c2snc(C(N)=O)c2N)C(C(=O)NCC2CCCO2)c2cccs2)c1 (configuration not stated)
0.68	-0.13	COCc1cc(C)nc(Nc2ccc(C)cc2C)c1C#N
0.39	-0.12	O=C(CCCN1CCOCC1)c1ccc2c(c1)OCCO2
1.5	1.5	N#C/C(C(=O)c1ccccc1)=C1/CCCN1
5.4*	0.5*	CCCc1nc2oc3c(NCCN(C)C)ncnc3c2c2c1CCCC2
0.5	2.2	O=[N+]([O-])c1cnccc1NC1CCCCC1
0.09	3.1	COc1ccc(NC(=O)C2CCN(S(=O)(=O)c3c(C)noc3C)CC2)cc1OC
1.8	-0.73	CCN(CC(=O)N1CCOCC1)S(=O)(=O)c1ccc2ccccc2c1
0.2	0.37	CO/N=C/NC(=O)c1c(OC)ccnc1Oc1ccc(Cl)cc1
0.69	0.11	COc1ccc(Cl)cc1/C=C/c1ccc2cccc(O)c2n1
0.5	-0.68	COc1ccc(NC(=O)c2cc(C)cc(C)c2)cc1[N+](=O)[O-]
0.11	2.7	O=C(Nc1cccc(C(F)(F)F)c1)N1CCN(C(=O)Nc2cccc(C(F)(F)F)c2)CC1
0.06	1.1	CCOc1ccc(NS(=O)(=O)c2ccc3[nH]c(=O)c(=O)[nH]c3c2)cc1
0.68	-0.47	COC(=O)CCCC(=O)Nc1ccc(Cl)c(Cl)c1
1.1	-0.27	CCN1C(=O)C2(C(C#N)=C(N)Oc3n[nH]c(C(C)C)c32)c2ccccc21 (configuration not stated)
0.91	-1.4	Nc1nc(CSc2nc3ccccc3s2)nc(N2CCOCC2)n1
0.18	1.6	O=C(CCCN1C(=O)/C(=C/c2ccccc2)SC1=S)Nc1cccc(O)c1
1.3	0.87	CCOc1ccc(Br)cc1/C=N/NC(=O)c1ccncc1
1.9	2.9	CCCc1ccc(/C=C2\C(=O)c3ccccc3C(O)=C2C(=O)OCC)cc1
1.6	2.2	COc1ccc(NC(=O)CSCC(=O)N(C)CC(=O)Nc2ccc(Cl)c(C(F)(F)F)c2)cc1
0.11	0.28	O=C(OCC(=O)c1ccccc1Br)c1ccncc1
1.9	-1.2	O=C(NC(=S)NCCc1ccc(Cl)cc1)c1ccco1
0.09	-0.76	Cc1noc(C)c1S(=O)(=O)N1CCCC(C(=O)Nc2nccs2)C1 (configuration not stated)
0.72	0.28	C[C@H]1CN=C(Nc2ccccc2)N1CC1CCCCCC1
2.8	-1.5	OCc1nc2ccccc2n1Cc1ccc(Cl)cc1
1.4	-0.5	COc1ccc(C(=O)O)cc1F
0.43	-1.3	Cc1nnc(NCCc2ccccc2)[nH]c1=O
1.4	-0.09	CCOc1ccc(C2=C(C=Nc3c(C)n(C)n(-c4ccccc4)c3=O)C(c3ccc(F)cc3)c3ccccc3O2)cc1 (configuration not stated)
1.3	0.45	S=C(Nc1ccc(Nc2ccccc2)cc1)N1CCN(c2ncccn2)CC1
1	0.52	COC(=O)c1ccc(CN2C(=O)NC3(CCC(C)CC3)C2=O)o1 (configuration not stated)
2.1	-0.19	O=C(C1CCCN(S(=O)(=O)c2ccc(F)cc2)C1)N1CCCCC1 (configuration not stated)
0.5	0.02	Cc1ccc(C(=O)NCC(=O)NCC(c2cccs2)N2CCOCC2)cc1C (configuration not stated)
0.01	0.91	CCOc1c2ccc(C(=O)NCCc3ccc(C)cc3)cc2nn1CC
0.6	1	COc1ccc(NC(=O)NCCCCc2ccccc2)cc1OC
0.57	-0.4	Cc1ccccc1C1C(C#N)=C2N=C(N)c3c(sc4c3CCCCC4)N2C2=C1C(=O)CC(C)(C)C2 (configuration not stated)
0.02	-1.5	CCN=C(Nc1ccc2c(c1)OCO2)SC1CC(=O)N(c2ccccc2F)C1=O (configuration not stated)
0.23	1.3	CCCc1n[nH]c(=O)c2c1nnn2Cc1ccccc1F

A section of the results above, as a working copy:
KCNQ2 pot	KCNQ2 pot baseline	SMILES
1.4	-0.09	CCOc1ccc(C2=C(C=Nc3c(C)n(C)n(-c4ccccc4)c3=O)C(c3ccc(F)cc3)c3ccccc3O2)cc1 (configuration not stated)
1.3	0.45	S=C(Nc1ccc(Nc2ccccc2)cc1)N1CCN(c2ncccn2)CC1

Sorted by value in KCNQ2 pot (rising): some entries from above.
mol,KCNQ2 pot
CCOc1c2ccc(C(=O)NCCc3ccc(C)cc3)cc2nn1CC,0.01
CCOc1ccc(NS(=O)(=O)c2ccc3[nH]c(=O)c(=O)[nH]c3c2)cc1,0.06
COC(=O)CCCC(=O)Nc1ccc(Cl)c(Cl)c1,0.68
COc1ccc(Cl)cc1/C=C/c1ccc2cccc(O)c2n1,0.69
COC(=O)c1ccc(CN2C(=O)NC3(CCC(C)CC3)C2=O)o1 (configuration not stated),1
CCOc1ccc(Br)cc1/C=N/NC(=O)c1ccncc1,1.3
OCc1nc2ccccc2n1Cc1ccc(Cl)cc1,2.8

(listing goes on)
KCNQ2 pot	KCNQ2 pot baseline	SMILES
0.02	0.68	CCc1cc(C(=O)Nc2ncccc2O)sc1C
0.02	-0.01	CC1CCN(c2ccc(N3C(=O)C4CCCCC4C3=O)cc2[N+](=O)[O-])CC1 (configuration not stated)
0.29	1.3	CC(=O)N(c1ccc(N(C(C)=O)S(=O)(=O)c2ccccc2)cc1)S(=O)(=O)c1ccccc1
0.03	-0.12	Cc1cc(C(=O)COC(=O)CNC(=O)c2ccc(F)cc2)c(C)n1Cc1ccco1
0.04	-0.98	CCCCNc1cc(F)nc(N)n1
0.03	-0.05	CSc1nc(C(=O)N2CCCC(N3CCN(c4ccccc4C)CC3)C2)cs1 (configuration not stated)
1.8	-0.67	O=C(OCc1nnc(-c2ccccc2)o1)c1cc(=O)[nH]c2ccccc12
0.18	1.4	COc1cc(CN2CC(=O)N(c3cc(Cl)ccc3C)C2=S)cc(OC)c1OC
0.03	-0.82	CCNc1nc(Cl)nc(N(NC(C)=O)C(C)C)n1
0.35	-0.01	CN(C)CC1CCCCC1OC(=O)c1ccc(Cl)cc1 (configuration not stated)
1.1	0.42	O=C(Nc1nnc(-c2ccco2)o1)c1ccc(N2C(=O)CCC2=O)cc1
1.3	-4.8	Cc1cc(C)cc(NC(=O)c2cnn(-c3ccccc3)c2C2CCNCC2)c1
0.62	-1.1	CCCN(CC#CC(O)(c1ccccc1)c1cccnc1)CCC (configuration not stated)
0.83	0.46	Cc1ccc(CNC(=O)c2nc3nc(C)cc(C)n3n2)cc1
0.23	-0.33	O=S(=O)(c1ccccc1F)N1CCc2ccccc2C1
1.1	-0.04	CCn1c(O)c(/C=N/N=C2CCCCC2)c2cc(C3=NNC(=O)CC3)ccc21
1.4	-0.19	NS(=O)(=O)c1cccc(NC(=O)CNC(=O)CC23CC4CC(CC(C4)C2)C3)c1
1.2	0.18	CCOCCCNCC(=O)N1CCN(S(=O)(=O)c2ccc(C)cc2)CC1
0.47	-0.58	Cc1nc2ccccc2n1C1CC(=O)N(N(C)C)C1=O (configuration not stated)
0.96	-0.35	CCOc1ccc(Nc2nc(C)cc(C)c2C#N)cc1
0.99	-0.92	Cc1ccccc1NC(=O)C(=O)N/N=C/c1cccc(Br)c1
0.01	-0.14	COc1ccc(CCNC(=O)Cn2c(=O)c3cccn3c3cccnc32)c(OC)c1OC
0.35	-0.25	COc1ccc(NC(C)=O)cc1NC(=O)CSc1nnc(-c2cccnc2)n1C
1.1	-1	O=S(=O)(c1cccc2cccnc12)N1CCN(c2ccccn2)CC1
0.93	-0.81	COc1ccc(OC2CCN(S(=O)(=O)c3ccc(OC)c(OC)c3)CC2)cc1
0.02	-0.28	COc1ccc(CNC(=O)COC(=O)c2ccco2)cc1
0.07	-0.05	COc1ccc(CN2CCNC(=O)C2CC(=O)NCC(C)(C)N2CCOCC2)cc1C (configuration not stated)
0.41	0.77	COc1ccc(C)cc1NC(=O)C1CC(=O)OC12CCCCC2 (configuration not stated)
7.7*	2.3*	CCCCC(Nc1ncnc2ccccc12)C(=O)O (configuration not stated)
0.2	1.2	COc1cccc(-c2nnc(SCc3ccccn3)n2C)c1
2.1	0.26	Cc1cc2c(c(=O)n1CCc1ccccc1)C(c1ccco1)C(C#N)=C(N)O2 (configuration not stated)
0.77	-0.14	O=C(O)c1ccc2cccnc2n1
1.6	-0.02	Cn1nc(-c2ccc(C(=O)NC3CCCCC3)cc2)c2ccccc2c1=O
0.32	-2.6	O=C(C1CC(c2ccc(F)cc2)=NO1)N1CCCCC1 (configuration not stated)
1.9	-0.04	O=S(=O)(Nc1cccc(-n2cnnn2)c1)c1ccccc1
0.27	1.1	Clc1ccc(-c2n[nH]c3c2Cc2ccccc2-3)cc1Cl
0.01	-1.7	Cc1nc(-c2ccc(S(=O)(=O)Nc3ccc(Br)cc3F)cc2)co1
0.16	-0.02	C=CCN(c1ccccc1)S(=O)(=O)c1cc(C(=O)NC2=NCCS2)ccc1Cl
0.55	-0.11	CC1=NN(c2ccccc2)C(=O)C1/C=C1\NC(=S)NC1=O (configuration not stated)
0.92	-0.15	CCOc1ccccc1N1CCN(C(=O)c2ccc3[nH]c4c(c3c2)CCCC4)CC1
1.2	-1.2	O=C(NCC1CCCO1)C(=O)c1c[nH]c2ccccc12 (configuration not stated)
1.2	-0.64	CSC(=S)N/N=C/c1ccc(N(C)C)cc1
0.49	0.25	CCOC(=O)c1ccccc1NC(=O)COC(=O)c1c(CC)noc1C
0.5	0.14	COC(=O)c1cc(NC(=O)CN(c2ccccc2OC)S(=O)(=O)c2ccccc2)ccc1Cl
1.1	-0.58	COc1cccc(NC(=O)c2ccc[n+](C)c2)c1
0.45	0.81	Cn1nc([N+](=O)[O-])nc1N1CCOCC1
0.95	-2.5	CCOCCn1c(=NC(=O)c2cc3ccccc3oc2=O)sc2cc(S(N)(=O)=O)ccc21
1.9	-2.3	COCCNC(=S)Nc1ccc2nc(N3CCN(C)CC3)cc(C)c2c1
0.08	-1.2	Cc1ccc(-n2ncc3c(SCc4cccnc4)ncnc32)c(C)c1
0.01	0.8	C=CCNC(=S)NNC(=O)c1ccc(OCCCC)cc1
0.01	0.76	Cc1ccc(S(=O)(=O)N(C)CCCC(=O)n2nc(C)cc2C)cc1
0.48	0.38	Cc1cc(NC(=O)c2ccc(C#N)cc2)on1
0.01	1.2	CCOC(=O)CNc1nc(Cl)nc(Nc2ccccc2)n1
1.2	-0.32	Cc1cc(C)c2[nH]c(O)c(N=NC(=S)NCC3CCCO3)c2c1 (configuration not stated)
1	-0.67	COC(=O)N/N=C(\C)c1ccco1
1.1	-0.89	CCc1ccc(NC(=O)C(=O)NCc2ccccn2)cc1
0.61	-1.2	CCOC(=O)c1sc2nc(N3CCOCC3)c3c(c2c1N)CC(C(C)C)OC3 (configuration not stated)
4.3	-1.1	CN(C)S(=O)(=O)c1ccc(NC(=O)CN2CCC(Cc3ccccc3)CC2)cc1
0.25	-1.1	O=[N+]([O-])c1cc(C(F)(F)F)ccc1NCCc1c[nH]c2ccccc12
0.06	-0.77	Cc1cc(C(F)F)nn1CC(=O)NC1C(=O)N2C(C(=O)O)=C(CSc3nnnn3C)CSC12 (configuration not stated)
1.3	0.01	CC(=O)c1sc(NC(=O)c2ccc(Cl)cc2)nc1C
1.9	-0.63	Cc1c(NC(=O)CSc2ccc(Cl)cc2)cccc1-c1nc2ncccc2o1

Filtered by structure: those above containing a nitro group on carbon
KCNQ2 pot	KCNQ2 pot baseline	SMILES
0.21	-2.8	Cc1ccc(N=C2NC(=O)c3cc([N+](=O)[O-])ccc32)cc1
0.5	2.2	O=[N+]([O-])c1cnccc1NC1CCCCC1
0.5	-0.68	COc1ccc(NC(=O)c2cc(C)cc(C)c2)cc1[N+](=O)[O-]
0.02	-0.01	CC1CCN(c2ccc(N3C(=O)C4CCCCC4C3=O)cc2[N+](=O)[O-])CC1 (configuration not stated)
0.45	0.81	Cn1nc([N+](=O)[O-])nc1N1CCOCC1
0.25	-1.1	O=[N+]([O-])c1cc(C(F)(F)F)ccc1NCCc1c[nH]c2ccccc12
